Screens as filed in PubChem BioAssay.
KCNQ2 block = KCNQ2 potassium channel inhibitors, primary screen, cell-based, CHO-K1, FluxOR thallium flux, B-score (AID 2156) | B-score at 10 µM | hit rate 1.1% among 310,000 | 20 min; active compounds read low; only compounds with negative scores are shown here; some inactives read as strong as hits;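 active means fluorescence ratio B-score at most minus 3 library SDs, with starting brightness B-score within 2 library SDs, cut at about -5.5 in these data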
Target sequence (O88943 whole entry, looked up): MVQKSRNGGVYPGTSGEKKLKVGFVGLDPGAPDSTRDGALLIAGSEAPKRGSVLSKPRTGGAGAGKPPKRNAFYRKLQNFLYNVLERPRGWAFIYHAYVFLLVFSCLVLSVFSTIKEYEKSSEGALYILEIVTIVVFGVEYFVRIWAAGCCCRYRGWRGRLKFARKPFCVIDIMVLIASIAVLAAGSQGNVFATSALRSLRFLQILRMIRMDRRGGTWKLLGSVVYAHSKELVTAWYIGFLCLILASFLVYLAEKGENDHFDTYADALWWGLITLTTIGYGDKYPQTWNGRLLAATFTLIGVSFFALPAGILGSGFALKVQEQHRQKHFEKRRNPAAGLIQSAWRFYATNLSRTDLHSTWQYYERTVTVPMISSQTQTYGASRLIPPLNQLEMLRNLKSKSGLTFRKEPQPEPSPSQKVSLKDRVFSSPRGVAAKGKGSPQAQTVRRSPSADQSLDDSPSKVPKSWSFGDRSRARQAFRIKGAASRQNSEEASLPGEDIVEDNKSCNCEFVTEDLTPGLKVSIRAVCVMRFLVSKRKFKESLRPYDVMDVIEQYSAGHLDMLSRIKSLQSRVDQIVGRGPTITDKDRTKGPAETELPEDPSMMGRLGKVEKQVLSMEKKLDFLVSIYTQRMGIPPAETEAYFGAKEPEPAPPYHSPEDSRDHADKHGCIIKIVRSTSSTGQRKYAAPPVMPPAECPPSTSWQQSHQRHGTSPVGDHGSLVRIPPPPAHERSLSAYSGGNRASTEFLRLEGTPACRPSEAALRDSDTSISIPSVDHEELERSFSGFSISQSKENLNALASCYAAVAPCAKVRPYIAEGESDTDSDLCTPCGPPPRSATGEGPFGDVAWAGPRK
KCNQ2 block baseline = also measured in KCNQ2 block; calls as there; B-score; measured here: initial fluorescence intensity artifact check;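 brightness before thallium and not channel activity; 0 = typical well and far values either way flag optical interference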
Active calls of the source: *; i = inactive. An excerpt (hit frequency here may not be typical).

SMILES | KCNQ2 block | KCNQ2 block baseline
COCC1CCN(C(=O)c2cc(COc3ccc(F)cc3F)on2)C1 (configuration not stated) | i | 0.78
CCOC(=O)CC(N)c1cccc([N+](=O)[O-])c1 (configuration not stated) | i | 1.8
O=C(Nc1ccccc1)Nc1nnc(Cc2ccc([N+](=O)[O-])cc2)s1 | i | 1.8
COc1cc(/C=N\n2nnnc2N)ccc1OCc1ccc(F)cc1 | i | 0.06
CS(=O)(=O)N(CC(=O)N1CCOCC1)c1cccc(Cl)c1Cl | i | -0.72
CCn1c(Sc2ccc([N+](=O)[O-])cn2)nnc1-c1ccco1 | i | 3.6
COCCn1c(N)c(N(Cc2ccccc2)C(=O)Cc2ccccc2F)c(=O)[nH]c1=O | i | 0.97
COc1ccccc1N(CN1CCCC1=O)C(=O)c1ccccc1F | i | -0.97
Cc1ccc(C)c(-n2c(SCC(=O)Nc3nonc3C)nnc2-c2ccoc2C)c1 | i | -1.3
CC(C)(C)OC(=O)N1CCCN(C(=O)c2ccc(Cl)cc2)CC1 | i | -1.3
N#Cc1ccc(NC(=O)COC(=O)C2=COCCO2)cc1 | i | 0.05
CN1CCN(CC(=O)N(C)c2nc(-c3ccccc3)cs2)CC1 | i | -1.5
CC(C)CC(=O)OCC(=O)Nc1ccccc1Sc1ccccc1 | i | 0.15
Cc1ccc(C)c(NC(=O)COc2coc(CN3CCc4ccccc4C3)cc2=O)c1 | i | 1.2
COc1cccc(CNCCc2c[nH]c3ccccc23)c1OCc1ccccc1F | i | -2.5
CCOc1ccc(N2CC(C(=O)Nc3nnc(Cc4ccccc4)s3)CC2=O)cc1 (configuration not stated) | i | 0.52
O=C(CN1C(=O)NC2(CCCCCCC2)C1=O)NC1CCCc2ccccc21 (configuration not stated) | -7.5* | 1.4*
CC(C)(C)NC(=O)CSc1nnc(CN2CCCCCC2=O)n1-c1ccccn1 | i | -0.3
N#Cc1ccsc1NC(=O)CN1CCN(S(=O)(=O)c2ccc3ccccc3c2)CC1 | i | -2.2
Cc1ccc(OCCn2cc(/C=C3\C(=O)NN(c4ccccc4)C3=O)c3ccccc32)cc1 | i | -1.2

Full records as entered above. Order of values: KCNQ2 block	KCNQ2 block baseline
CC(C)CC(=O)OCC(=O)Nc1ccccc1Sc1ccccc1 as listed: i	0.15
CC(C)(C)NC(=O)CSc1nnc(CN2CCCCCC2=O)n1-c1ccccn1 as listed: i	-0.3
Cc1ccc(C)c(NC(=O)COc2coc(CN3CCc4ccccc4C3)cc2=O)c1 as listed: i	1.2

Later entries:
SMILES | KCNQ2 block | KCNQ2 block baseline
O=C(CCl)N(C/C=C/c1ccccc1)c1ccc2c(c1)OCCO2 | i | 1.9
COc1cccc(CC2(CO)CCCN(Cc3[nH]c4ccc(C)cc4c3C)C2)c1 (configuration not stated) | i | -1.1
CCOc1cc(/C=C2\C(=N)N3N=CSC3=NC2=O)ccc1OS(=O)(=O)c1ccccc1 | i | -0.17
COCCN(Cc1cc2cc(C)ccc2n2nnnc12)C(=S)Nc1ccccc1C | i | 0.89
C=CCn1c(SCC(=O)Nc2ccc3c(c2)OCO3)nnc1-c1cc(Br)ccc1O | i | -0.03
CSc1ccc(CCNC(=O)c2ccc(CS(=O)Cc3ccccc3Cl)o2)cc1 (configuration not stated) | i | 0.01
Cc1ccc(-c2[nH]c3cc(C(N)=O)ccc3c(=O)c2O)cc1 | i | 0.77
O=S(=O)(c1ccccc1)N1CCC(O)(CN2CCN(c3ccccc3)CC2)CC1 | i | 0.45
CSc1ccc(/C=N\Nc2nncn2N)cc1 | i | -1
CCc1ccc(C(=O)N2CCN(c3ccc(NC(=O)c4cccnc4)cc3)CC2)cc1 | i | -0.46
Cc1nc(SCC(=O)Nc2c(C)n(C)n(-c3ccccc3)c2=O)nc(C)c1C | i | -0.01
COc1ccc(CCN=Cc2ccccc2O)cc1OC | i | 1.9
Cc1cc(C)n(-c2ccc(Cl)c(C(=O)Nc3cc(C(F)(F)F)ccc3Cl)n2)n1 | i | 2.4
Cc1ccnc(N2CCC(C(=O)NCc3ccc4c(c3)OCO4)CC2)n1 | i | -0.16
CC1CCCCN1c1nnc(NC(=O)c2cc(-c3ccc(Br)cc3)on2)s1 (configuration not stated) | i | -0.08
Cc1noc(NS(=O)(=O)c2ccc(NC(=O)COc3ccccc3)cc2)c1C | i | -1.6
O=C(NCCN1CCN(c2ccccc2)CC1)C1CCCN(S(=O)(=O)c2cnc[nH]2)C1 (configuration not stated) | i | -0.85
FC(F)(F)c1cc(-c2cccs2)nc(NCc2ccco2)n1 | i | 0.7
COc1ccccc1NC(=O)CSc1nc2ccccc2c(=O)n1CC1CCCO1 (configuration not stated) | i | -0.08
CCN1CCCC1CNC(=O)c1ccc2c(=O)n(CCOC)c(=O)[nH]c2c1 (configuration not stated) | i | -0.04
COc1cc(CN2CCN(C(=O)CC(C)C)CC2)c([N+](=O)[O-])cc1OC | i | 0.35
Cc1cc(C(=O)OCC(=O)c2c(N)n(C)c(=O)n(C)c2=O)c(C)n1-c1ccccc1 | i | -2
COc1ccc(Cl)cc1NC(=O)C1CC(=O)N(C2CCCCC2)C1 (configuration not stated) | i | 0.96
O=C(CSc1ccc(-c2cccnc2)nn1)Nc1ccccc1F | i | 0.47
C=CCn1c(N2CCN(c3ccc(OC)cc3)CC2)nc2c1c(=O)n(C)c(=O)n2C | i | -0.89
Cc1ccc(/C(CSc2nccn2-c2ncc(C(F)(F)F)cc2Cl)=N\O)cc1 | i | -0.28
N#CCCN1CCN(S(=O)(=O)c2ccc(S(=O)(=O)NCc3ccccc3)cc2)CC1 | i | -1.1
O=C(O)C1CCCCC1C(=O)NCc1ccccc1 (configuration not stated) | i | 0.39
CCC(OC(=O)c1nsc(Cl)c1Cl)C(=O)NCCc1ccccc1 (configuration not stated) | i | 1.5
c1ccc(CN(Cc2ccccc2)c2ncnc3c2nnn3Cc2ccccc2)cc1 | i | -1.1
Cc1cccc(-n2ncc3c(Nc4c(C)n(C)n(-c5ccccc5)c4=O)ncnc32)c1 | i | -0.1
Cc1nc2ccccc2c(=O)n1-c1ccc(NS(=O)(=O)c2cc(F)ccc2F)cc1 | i | 0.03
O=C(NC1CCCC1)c1cc2cc(Br)ccc2o1 | i | 0.13
O=S(=O)(NCc1ccccc1)NCc1ccc(Cl)cc1Cl | i | 0.55
COC(=O)CNC(=O)CNC(=O)c1nn(-c2ccc(OC)c(OC)c2)c(=O)c2ccccc12 | i | -0.38
O=C(NCc1ccccc1)N1CCN(c2ccc(F)cc2)CC1 | i | 0.59
Cc1ccc(-c2nc(CSCC(=O)Nc3cc(C)on3)c(C)o2)cc1 | i | 2.8
Cc1nonc1C1CCCN1Cc1nc(-c2ccccc2Cl)oc1C (configuration not stated) | i | 1
Cc1c(C(=O)NNc2cc(=O)n(C)c(=O)n2C)cccc1[N+](=O)[O-] | i | -0.65
CN(CCOc1ccc(Cl)c(Cl)c1)Cc1ccccc1 | i | 0.07
O=C(Nc1nnc(SCC(=O)N2CCCCC2)s1)C1CCCCC1 | i | 1.8
Clc1ccc2c(c1)C(c1cccs1)=NNC(c1cccnc1)=N2 | i | 3.5
OC(Cn1cncn1)c1ccc(Cl)cc1Cl (configuration not stated) | i | 1.5
Cc1ccc(-c2noc(C3CCCN(S(=O)(=O)c4ccc(S(=O)(=O)N(C)C)cc4)C3)n2)o1 (configuration not stated) | i | 1
COc1cc(NC(=O)C2CC(=O)NC3=C2C(=O)CC(C)(C)C3)c(OC)cc1Cl (configuration not stated) | i | 0.53
O=C1C2C3C=CC(CC3)C2C(=O)N1/N=C/c1ccc(O)cc1 (configuration not stated) | i | 1.1
O=C(Nc1ccc(NC(=O)c2ccc([N+](=O)[O-])o2)cc1Cl)c1ccco1 | i | 2.1
O=C(/C=C/c1ccccc1[N+](=O)[O-])NCc1ccc(Cl)cc1 | i | -0.75
O=C1CCN(CCc2ccccc2)CCN1[C@H](CO)c1ccccc1 | i | 2.9
CCOC(=O)c1cnc(-n2nc(C)cc2C)nc1-n1nc(C)cc1C | i | -0.77
Next part
SMILES | KCNQ2 block | KCNQ2 block baseline
CN1CC2([N+](=O)[O-])CC=C(Oc3ccccc3)C([N+](=O)[O-])(C1)C2 (configuration not stated) | i | 1.6
Cc1cc(Cl)ccc1NC(=O)C(=O)N/N=C/c1ccc2c(c1)OCO2 | i | -0.27
COc1ccc2[nH]c(=O)c(CN(Cc3ccccc3OC)Cc3nnnn3CC3CCCO3)cc2c1 (configuration not stated) | i | -0.01
N#CCCN(C(=O)COC(=O)C1CCN(c2ccc(C(F)(F)F)cn2)CC1)c1ccc(F)cc1 | i | -0.54
CCOCCCn1c(SCC(=O)Nc2cccc(OC)c2)nc2ccccc2c1=O | i | -2.5
Cc1ccccc1NC(=O)CSc1nc2c(c(-c3ccco3)c1C#N)CCCC2 | i | -0.32
COc1ccc(C(CC(=O)O)NC(=O)COc2ccccc2OC)cc1OC (configuration not stated) | i | 2.9
COC(=O)COc1ccc(S(=O)(=O)N2CCN(c3ccccc3F)CC2)cc1 | i | 1.1
COC(=O)c1ccc(CN2CCN(CCc3ccccc3)C(CCO)C2)cc1 (configuration not stated) | i | -0.21
CCOc1ccccc1NC(=O)C12CC3CC(C1)CC(c1ccc(C)cc1)(C3)C2 | i | -0.79
Cc1ccc(N2CC(C(=O)Nc3ccc(S(=O)(=O)N4CCCC4)cc3)CC2=O)cc1 (configuration not stated) | i | 0.48
Cc1ccc(NC(=O)NC2CC(=O)N(c3ccc4c(c3)OCCO4)C2)cc1 (configuration not stated) | i | -1.5
CN(C)c1ccc(/C=N/NC(=O)C(O)c2ccc(Br)cc2)cc1 (configuration not stated) | i | 0.65
COc1ccc2ccccc2c1/C=N/NC(=O)c1ccc(C)nc1 | i | -0.03
O=c1cc(NS(=O)(=O)c2ccccc2)nc(SCc2c(Cl)cccc2Cl)[nH]1 | i | 2.1
Cc1ccnc2nc(NC(=O)c3ccco3)nn12 | i | -1.3
O=C(c1ccc(-c2cccc(Cl)c2Cl)o1)N1CCOCC1 | i | -0.94
CCOc1cccc(C2/C(=C(/O)c3ccc4c(c3)CC(C)O4)C(=O)C(=O)N2CCCn2ccnc2)c1 (configuration not stated) | i | -0.39
O=S1(=O)C=C(Oc2ccc3ccccc3c2)c2ccccc21 | -6.1* | -0.48*
O=C(COc1ccc2ccccc2c1Br)Nc1ccncc1 | i | -0.24

4 entries from above, field by field.
Molecule: O=c1cc(NS(=O)(=O)c2ccccc2)nc(SCc2c(Cl)cccc2Cl)[nH]1
  KCNQ2 block: i
  KCNQ2 block baseline: 2.1

Molecule: Cc1ccnc2nc(NC(=O)c3ccco3)nn12
  KCNQ2 block: i
  KCNQ2 block baseline: -1.3

Molecule: O=C(COc1ccc2ccccc2c1Br)Nc1ccncc1
  KCNQ2 block: i
  KCNQ2 block baseline: -0.24

Molecule: Cc1ccc(N2CC(C(=O)Nc3ccc(S(=O)(=O)N4CCCC4)cc3)CC2=O)cc1 (configuration not stated)
  KCNQ2 block: i
  KCNQ2 block baseline: 0.48

(list continues)
SMILES | KCNQ2 block | KCNQ2 block baseline
N#CCCn1cc(C(=O)N2CCCCC2)c(-c2cccc([N+](=O)[O-])c2)n1 | i | -0.46
CCCc1cc(=O)oc2cc(OC(C)C(=O)NCC3CCC(C(=O)O)CC3)c(Cl)cc12 (configuration not stated) | i | 1.6
Cc1nc2c3cc(F)ccc3n(Cc3ccccc3F)c2s1 | i | -0.06
CCOC(=O)N1CCN(CC(O)COc2ccccc2[N+](=O)[O-])CC1 (configuration not stated) | i | 2.8
Cc1nn(CC(=O)c2ccccc2)c(=O)c2nn(-c3ccccc3F)c(C)c12 | i | 0.31
O=C1NN=C(c2ccc(Br)cc2)CC1c1ccc(Cl)cc1 (configuration not stated) | i | -0.99
Cc1cccc2sc(NNC(=O)c3ccc(S(=O)(=O)N4CCc5ccccc5C4)cc3)nc12 | i | -2.7
CCOC(=O)COc1ccc(S(=O)(=O)NCCC2=CCCCC2)cc1 | i | -0.66
CCc1nn2c(N)c(/C=C3\C=Nc4ccccc43)c(=O)nc2s1 | i | -1.6
NNC(=O)Cn1c(COc2ccc(Cl)cc2)nc2ccccc21 | i | -0.48
Cc1oc2cc3oc(=O)c(CCC(=O)NCCCN4CCCC4=O)c(C)c3cc2c1C | i | 0.34
Cc1nnn(C23CC4CC(CC(C4)C2)C3)n1 | i | -0.82
CCOc1ccccc1C(C(=O)NC1CCCC1)N(C(=O)c1csnn1)C1CC1 (configuration not stated) | i | -1
CCc1ccc(C(=O)COC(=O)CNC(=O)COc2ccccc2)cc1 | i | 1.8
O=C(CN1C(=O)c2ccccc2S1(=O)=O)c1ccc2c(c1)OCCO2 | i | 1.4
O=C(NC(=S)Nc1ccc2[nH]c(=O)[nH]c2c1)c1ccccc1F | i | 0.33
CC(C)CCN(C(=O)c1csnn1)C(C(=O)NC1CCCC1)c1ccccc1 (configuration not stated) | i | -0.44
O=Cc1c(NCc2ccccc2)c2ccccc2[nH]c1=O | i | 0.39
CC(Oc1ccccc1Br)C(=O)N1CCc2ccccc21 (configuration not stated) | i | -0.25
CCCNC(=O)COC(=O)/C=C/c1cccc(F)c1 | i | 0.77
COc1ccc(/C(C#N)=C/c2c(-c3ccc(Cl)cc3)nc3c(C)cccn23)cc1 | i | 1
CCOC(=O)C1(CCCCCCOc2ccc(Cl)cc2)CO1 (configuration not stated) | i | -0.02
